High-throughput results: PubChem BioAssay, National Center for Advancing Translational Sciences (NCATS)
TRPML1 ag: human mucolipin-1 channel agonism | TRPML1-expressing cells, Ca2+ dye fluorescence, FDSS; host cell line not named in the record; reference of the full effect not given here | activation, % (concentration not given with the values) | 410,000 compounds, 0.12% hits | AID 624414; in the data active = activation above about 50%; inconclusive = about 30% to 50%; inactive = below about 30%; further: 0% is about no effect; the text of the record puts the active cut at 80%
Target sequence (Q9GZU1 whole entry, looked up): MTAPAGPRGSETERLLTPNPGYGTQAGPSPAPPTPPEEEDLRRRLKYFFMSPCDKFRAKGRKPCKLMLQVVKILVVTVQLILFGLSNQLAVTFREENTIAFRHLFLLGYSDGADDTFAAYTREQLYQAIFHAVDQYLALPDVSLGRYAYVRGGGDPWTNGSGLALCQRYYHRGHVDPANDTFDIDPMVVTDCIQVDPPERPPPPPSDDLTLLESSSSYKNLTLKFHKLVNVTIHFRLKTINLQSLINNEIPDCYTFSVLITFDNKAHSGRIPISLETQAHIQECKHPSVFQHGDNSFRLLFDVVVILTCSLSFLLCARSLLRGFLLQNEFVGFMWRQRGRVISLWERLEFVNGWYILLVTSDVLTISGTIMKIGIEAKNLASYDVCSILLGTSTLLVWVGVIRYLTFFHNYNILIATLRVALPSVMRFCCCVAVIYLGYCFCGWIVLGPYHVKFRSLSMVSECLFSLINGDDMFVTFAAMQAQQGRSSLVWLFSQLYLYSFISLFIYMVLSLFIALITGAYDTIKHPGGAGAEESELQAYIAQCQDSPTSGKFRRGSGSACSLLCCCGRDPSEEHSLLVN
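Tetracycline-induced TRPML1-DL cells are seeded and incubated overnight before loading with a no-wash Ca2+ dye and quencher. Agonist activity is taken from the 110 s fluorescence read following compound pin-transfer on an FDSS, before EC80 54-4 challenge.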
PINK1 modulator: modulators of PINK1 expression; PINK1 immunofluorescence, high-content cytometry, 24 h; Potency, µM (highest dose often 76.6 µM), for inactives: top-dose activation (PINK1 increase), most hits filed as activators; 410,000 compounds, 0.2% hits; AID 624263; active = well fitted activation curve with a large enough effect; inconclusive = small, poorly fitted or top-dose-only effect; inactive = flat fitted curve, though single readings scatter; cell line not stated here;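 further: potency means the concentration at half of the fitted maximal effect; % of control where 0% means no effect; nearly all actives have a fitted effect of over 65% in size; a mitochondrial uncoupler was the plate control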
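Decision-based qHTS: stable cells, 24 h exposure to five compound concentrations, CCCP as control. Fixed cells stained for PINK1 plus nuclear, mitochondrial and cell markers, cytometer read.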
CtBP-E1A blk: blocks the CtBP interaction with E1A | AlphaScreen GST-E1A/His-CtBP binding, 1536-well; active compounds read low; control for the full effect not named in the record | activity change, % (concentration not given with the values) | 340,000 compounds, 0.49% hits; in the data active means activity change below about -65%; inconclusive means about -30% to -65%; inactive means above about -30%; further: on the % scale 0 is the no-effect control and ±100 the full control effect
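Homogeneous bead-based format: GST-tagged E1A captured on glutathione donor beads, His-tagged CtBP on nickel acceptor beads; compounds precede bead addition by 2 h at 37 °C.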
Six1-Eya2 blk: inhibitors of human Six1/Eya2 interaction. 360,000 compounds, 0.56% hits. activity change, % (no concentration beside the values). AID 651725. Q15475+O00167. AlphaScreen GST-Six1/His-Eya2 binding, biochemical; active compounds read low; control for the full effect not named in the record; in the data active = activity change below about -65%; inconclusive = about -30% to -65%; inactive = above about -30%; further: on the % scale 0 is the no-effect control and ±100 the full control effect
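Six1/Eya2 binding was read as AlphaScreen signal after compounds were pinned into GST-Six1 plus His-tagged Eya2 (5X stock 250/500 nM) in pH 8.0 Tris/NaCl/TCEP buffer, beads added, then incubated 1 h, 37 C, dark.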
D2 agonist: activates the human D2 dopamine receptor. DiscoveRx PathHunter D2 beta-arrestin, luminescence, 90 min; 100% = 57 uM dopamine signal. AID 624465. P14416. activation, % (no concentration beside the values). 360,000 compounds, 0.084% hits; in the data active = activation above about 40%; inconclusive = about 15% to 40%; inactive = below about 15%; further: compound concentration not given in the record; the text of the record calls up to 30% inactive
Target sequence (P14416 whole entry, looked up): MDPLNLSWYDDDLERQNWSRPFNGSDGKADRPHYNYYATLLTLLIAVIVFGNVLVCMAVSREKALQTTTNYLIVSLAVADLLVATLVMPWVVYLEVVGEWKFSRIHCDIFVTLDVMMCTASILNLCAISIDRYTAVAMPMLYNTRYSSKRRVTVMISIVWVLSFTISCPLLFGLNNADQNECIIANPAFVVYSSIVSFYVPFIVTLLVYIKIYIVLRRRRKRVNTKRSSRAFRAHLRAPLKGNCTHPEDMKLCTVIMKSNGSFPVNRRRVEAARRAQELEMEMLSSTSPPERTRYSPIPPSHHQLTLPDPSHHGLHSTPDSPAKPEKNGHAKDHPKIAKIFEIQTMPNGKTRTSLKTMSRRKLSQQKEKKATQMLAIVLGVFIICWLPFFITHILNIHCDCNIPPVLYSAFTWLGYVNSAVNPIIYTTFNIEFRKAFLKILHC
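DiscoveRx PathHunter D2 beta-arrestin cells (2,100/well) attached overnight, then compound-stimulated 90 min at 37 C in HBSS/10 mM HEPES/0.1% Tween-20 buffer; beta-galactosidase complementation read by luminescence after 1 h at ambient temperature. Dopamine 57 uM final (EC100) as control.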
TRPML1 blocker: blocks the human TRPML1 channel; TRPML1-inducible cells, Ca2+ dye fluorescence, FDSS; active compounds read low; inhibition of EC80 agonist-evoked calcium signal; 390,000 compounds, 0.02% hits; AID 624415; activity change, negative = inhibition, % (concentration not given with the values); in the data active means activity change below about -50%; inconclusive means about -30% to -50%; inactive means above about -30%;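 further: stimulus is agonist 54-4 at its EC80 concentration; on the % scale 0 is the no-effect control and ±100 the full control effect; the text of the record puts the active cut at -80%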
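Calcium fluorescence in TRPML1-DL cells induced overnight with Tet: a 110 s read after compound pin addition, then a 110 s antagonist read after challenge with 54-4 at 4 uM final (EC80).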
Starred values were filed as active, the others as inactive; ? = inconclusive; . = not tested or not shown; [ ] = another dose, or the depositor's remark. The order is random. About 1% of those tested had a hit in this group.

The first 5 entries (preview)
Values run as follows: PINK1 modulator, Six1-Eya2 blk, TRPML1 blocker, TRPML1 ag, D2 agonist, CtBP-E1A blk
CCCCCC(=O)N1C[C@H](n2cc(-c3ccc(F)cc3)nn2)[C@@H](O)C[C@@H]1c1ccc(OC)cc1
  5.1%, -1, 0, 0.9, 1.2, 6
CCc1ccc(NC(=O)CNC(=O)Cn2c(C)cc3ccccc3c2=O)cc1
  -0.1%, ., -3, 1.1, ., .
Cc1cc2ncn(/N=C/c3ccc([N+](=O)[O-])s3)c2cc1C
  5.7%, 5, -2, 0.3, 13, -8
O=C(NC(=S)Nc1sc2c(c1C(=O)O)CCCC2)c1ccccc1
  -0.9%, -3, -9, 0.0, -3.5, 0
CCOC(=O)c1cc2cc(C)ccc2[nH]1
  -0.8%, 6, 20, -0.4, 2.0, 4

Results (from the top)
Values run as follows: PINK1 modulator, Six1-Eya2 blk, TRPML1 blocker, TRPML1 ag, D2 agonist, CtBP-E1A blk
CCCCCC(=O)N1C[C@H](n2cc(-c3ccc(F)cc3)nn2)[C@@H](O)C[C@@H]1c1ccc(OC)cc1
  5.1%, -1, 0, 0.9, 1.2, 6
CCc1ccc(NC(=O)CNC(=O)Cn2c(C)cc3ccccc3c2=O)cc1
  -0.1%, ., -3, 1.1, ., .
Cc1cc2ncn(/N=C/c3ccc([N+](=O)[O-])s3)c2cc1C
  5.7%, 5, -2, 0.3, 13, -8
O=C(NC(=S)Nc1sc2c(c1C(=O)O)CCCC2)c1ccccc1
  -0.9%, -3, -9, 0.0, -3.5, 0
CCOC(=O)c1cc2cc(C)ccc2[nH]1
  -0.8%, 6, 20, -0.4, 2.0, 4
CCCCOC(=O)C1=C(C)Nc2ncnn2C1c1cccc(OC)c1 (centres undefined)
  -1.7%, -1, -9, 1.7, 0.0, -1
COc1ccc(CC(=O)Nc2nnc(SCC(=O)NCc3ccco3)s2)cc1OC
  5.6%, -2, 8, -0.6, 1.6, 0
CC1=C(C(=O)OCCOc2ccccc2)C(c2coc3ccccc3c2=O)C2=C(CCCC2=O)N1 (centres undefined)
  4.8%, 1, 9, 0.7, -0.8, .
CC1CC=C2C(C#N)=C(N)C(C#N)(C#N)C(c3cccs3)C2C1 (centres undefined)
  1.6%, -13, -3, 9.2, -3.8, -4
COc1ccc(Nc2ncnc3c2cnn3-c2cc(Cl)ccc2C)cc1OC
  4.6%, ., -10, -0.8, ., .
COC(=O)C(NC(=O)CNS(=O)(=O)c1ccc(Br)cc1)c1ccccc1 (centres undefined)
  0.2%, 16, 20, -0.4, -4.7, .
Cn1cccc1C(=O)OCC(=O)Nc1ccc2c(c1)OCCO2
  0.8%, -8, 3, -0.6, -0.1, 0
CCOc1cc(/C=C2/C(=O)ON=C2C)ccc1OCc1ccccc1F
  ., 0, 2, 1.6, -2.9, -5
Cc1ccccc1NC(=O)CNC(=O)Cc1cccc2ccccc12
  -1.0%, -14, -3, 1.2, -8.6, -6
O=C(CCl)N=c1sccn1Cc1ccccc1Cl
  -1.6%, -1, 10, 1.5, 0.0, 7
CCCCn1nnnc1C(c1ccccc1)N1CCN(c2ncccn2)CC1 (centres undefined)
  -0.6%, -1, ., -0.1, ., 1
NC(=O)CC[C@H](NC(=O)OCc1ccccc1)C(=O)OCc1ccc(Cl)cc1
  7.9%, 9, 39, 2.4, -0.5, 2
CC(C)c1nnc(SCC(=O)N2CCOCC2)n1C
  -1.6%, 3, 18, 0.1, 0.5, -3
Cc1c(Br)c([N+](=O)[O-])nn1CC(=O)NCC1CCCO1 (centres undefined)
  0.2%, 0, 9, 1.5, 2.0, .
N=C1/C(=C\c2coc3ccccc3c2=O)C(=O)N=C2SC(c3ccncc3)=NN12
  2.3%, ?, -14, 112*, 5.0, -26
O=C(Nc1cc(Cl)ccc1-n1cncn1)c1cccs1
  -0.8%, 0, -8, 0.4, -0.5, -3
O=C(CSc1ccc(-c2ccc(Br)cc2)nn1)N1CCOCC1
  -0.5%, 0, -9, 0.2, -0.5, -1
O=C1NCCCc2nonc21
  ., 7, 2, -0.1, 0.0, 6
CCOc1ccccc1NC(C)C(=O)NC(=O)NC1CCCCC1 (centres undefined)
  2.6%, -13, 1, 0.7, -5.1, -14
COc1ccc(NC(=O)C2CCN(S(=O)(=O)c3c(C)noc3C)CC2)cc1Cl
  16%[38.3 µM], -1, -5, -0.2, -1.5, 3
CCOc1ccc(Nc2nc3cc(S(=O)(=O)CC)ccc3o2)cc1
  1.1%, -1, -13, 2.3, -1.1, -18
Cc1ccc2c(c1)CC(C)N2S(=O)(=O)c1nnc(NC(=O)c2ccccc2F)s1 (centres undefined)
  4.5%, ., -20, 0.4, ., .
O=C(CSc1nnc(-c2cccc(Br)c2)o1)N1CCNC1=O
  3.1%, -5, 1, -0.3, 9.0, .
NC(=O)c1cc(S(=O)(=O)Nc2cccc(Cl)c2)cs1
  3.7%, 11, 43, -0.2, -1.1, 6
NC(=O)[C@H]1CC2(CC(c3cccc(NC(=O)COc4ccc(Cl)cc4)c3)=NO2)CN1C(=O)[C@H]1CCC(=O)N1 (some centres undefined)
  -0.5%, -11, 19, -0.1, -3.0, -15
CCc1cc2c(=O)n(Cc3ccco3)c(SCC(=O)NCC3CCCO3)nc2s1 (centres undefined)
  2.7%, 0, 22, -1.1, -2.2, 11
COc1cccc(OC)c1C(=O)NC(=S)N1CCN(c2ccc(C(F)(F)F)cc2[N+](=O)[O-])CC1
  2.4%, -25, 41, 1.8, -8.0, -18
COC(=O)[C@@H](NC(=O)NCc1cccs1)C(C)C
  2.5%[38.3 µM], 7, 23, 1.0, -1.9, 3
O=C(NC(c1ccc(Cl)cc1)c1cccnc1)C1CCN(CCOc2ccc(Cl)cc2Cl)CC1 (centres undefined)
  -0.4%, -8, ., 3.9, -6.1, 0
Cc1nc(C)c(C(=O)OCC(=O)Nc2ccccc2)s1
  0.7%, 10, -9, -0.2, -2.0, .
Nc1nnc(SCC(=O)NNC(=O)c2ccccc2)s1
  0.7%, -6, -13, 0.4, -4.8, 1
CCOC(=O)C1C(=O)C=C(N2CCOCC2)CC1c1cccc(OC)c1 (centres undefined)
  -0.4%, -3, 16, -0.3, -1.6, 0
CCOC(=O)C1CCCN(CC(=O)NC2CC2)C1 (centres undefined)
  4.0%[38.3 µM], 6, 20, 0.3, -3.4, 1
CNc1ccc(C(=O)OCC(=O)NCc2ccc3c(c2)OCO3)cc1[N+](=O)[O-]
  ?, 12, -8, -0.1, -1.6, .
COc1ccc(CNC(=O)Nc2ccc3c(c2)N(C)C(=O)c2ccccc2S3)cc1
  -0.4%, ., -5, 1.0, ., .
O=C(c1ccc(Br)o1)N(Cc1ccccc1)Cc1ccccc1
  0.3%, -12, -9, 0.2, -3.1, -8
O=C(CC1N=C2c3ccccc3N=C(SCc3cccc(Cl)c3)N2C1=O)NCCc1ccccc1 (centres undefined)
  23%, ., -1, 2.1, ., .
O=C(Nc1ccc2ccccc2c1)c1ccc2[nH]c(=O)c(=O)[nH]c2c1
  2.5%, ?, 6, 0.5, -1.7, -85*
CN(CC(=O)Nc1ccccc1C(F)(F)F)C(=O)CCc1nc2ccccc2c(=O)[nH]1
  -0.9%, -4, -10, -0.3, -3.0, -5
Cc1cc(=O)oc2cc(NC(=O)C3COc4ccccc4O3)ccc12 (centres undefined)
  ?, 2, 8, -0.7, 1.4, 6
CN(C)S(=O)(=O)c1ccc(C(=O)OCC2CCCO2)cc1 (centres undefined)
  0.4%, 10, ?, -0.2, 0.2, 2
CCSc1ncccc1-c1nc2ccccc2[nH]1
  4.8%, -4, 0, -0.1, -3.7, 1
Cc1ccc(NC(=O)COC(=O)COc2cccc3c2OC(C)(C)C3)c(C)c1
  0.6%, 0, -5, 1.7, -5.7, 10
Cc1cc(NC(=O)CSc2nnnn2-c2cc(Cl)ccc2C)no1
  3.2%, -2, 3, 3.9, -2.5, -3
CCN(C(=O)CCn1cnc2onc(-c3ccc(F)cc3)c2c1=O)c1ccc(OC)cc1
  0.3%, ., -10, 2.0, ., .

The list continues.
Values run as follows: PINK1 modulator, Six1-Eya2 blk, TRPML1 blocker, TRPML1 ag, D2 agonist, CtBP-E1A blk
Cc1nc(-c2ccccc2)sc1C(=O)CSc1ccc(F)cc1
  -0.8%, 33, 3, 1.4, -2.5, 15
CCS(=O)(=O)NCCCCc1ccccc1
  -0.3%, 0, 0, 1.9, 0.1, 0
O=S(=O)(c1ccc2nnn(O)c2c1)N1CCCCC1
  0.5%, 6, 13, -0.3, -4.6, 1
CCc1cc(C(=O)NNC(=O)c2csc(N3CCOCC3)n2)sc1C
  3.1%, -2, 1, -0.5, -1.4, 0
COc1ccc2cc(CNc3ccc(OC)c(OC)c3)c(=O)n(CC(=O)Nc3ccccc3F)c2c1
  2.1%, ., 6, 3.5, ., .
CCOC(=O)c1c(NC(=O)CSc2nnc(-c3c[nH]c4ccccc34)n2C)sc2c1CCCC2
  0.2%, -2, -7, 0.4, -4.6, 5
C[C@H](NC(=O)OC(C)(C)C)C(=O)N/N=C/c1cccc2nccnc12
  1.1%, -15, 26, -0.3, -5.4, -12
O=C(CCc1nc2ccccc2c(=O)[nH]1)NNC(=O)COc1ccccc1Cl
  3.6%, -5, -1, -0.4, -0.9, 9
COc1ccc(OC)c(S(=O)(=O)N2CCN(c3c(C)cccc3C)CC2)c1
  6.4%, -3, 23, 3.8, -3.9, 1
Cc1cc(C)cc(-n2ncc3c2CCCC3NC(=O)c2cc(C)n(C)n2)c1 (centres undefined)
  3.2%, -1, -4, 0.9, 0.2, 6
CN1C(=O)C(=O)/C(=C(/O)c2ccc(Br)cc2)C1c1ccccc1F (centres undefined)
  2.3%, 4, -14, 0.7, -5.4, 3
NC(=O)C1CCCc2c1n(Cc1ccccc1)c1ccccc21 (centres undefined)
  1.0%, -3, 29, 1.1, 6.5, 1
COc1ccc(S(=O)(=O)N(C)CC(=O)Nc2ccccc2SC)cc1
  -0.7%, 7, -11, 0.1, -2.2, 4
COc1ccc(/C=N/NC(=O)c2cc(-c3ccccc3OC)nc3ccccc23)cc1COC(C)=O
  -1.2%, -25, 36, -0.6, -1.9, -18
COCCCNC(=O)CCSc1ccc(Cl)cc1
  -3.6%, 7, -11, -0.2, -1.9, 1
Cc1csc(N=Cc2ccc([N+](=O)[O-])o2)n1
  -1.5%, ?, 1, -0.5, 3.3, 2
CSc1nnc(CNS(=O)(=O)c2ccc(Br)cc2)n1C
  1.0%, 3, 3, -0.4, -5.5, 2
CCc1nnc(NS(=O)(=O)c2ccc(NC(=O)c3ccc([N+](=O)[O-])s3)cc2)s1
  0.0%, -15, 3, -0.3, 4.0, -22
Cc1cc(=O)[nH]c(SCC(=O)Nc2ccc(C(=O)O)cc2)n1
  -1.7%[38.3 µM], 4, -3, -0.4, -2.3, 13
COc1cccc(NC(=O)COC(=O)c2sccc2C)c1
  -1.3%, -10, -6, -0.4, -5.1, 3
O=[N+]([O-])c1ccc(OCCn2cncn2)cc1
  -1.3%, 6, -3, 0.9, 0.1, .
N#C/C(=C\c1cccc2ccccc12)c1nn(-c2ccccc2)c(N)c1C#N
  13%[38.3 µM], -1, -7, 7.7, 0.4, -2
COc1ccc(OCCNc2cc(N3CCOCC3)ccc2[N+](=O)[O-])cc1
  -0.1%, ?, -5, -0.3, -1.7, ?
